# AID504770: E. coli YBA685 growth inhibition, screen for V. cholerae RctB inhibitors. 130,000 tested, 0.27% active. E. coli YBA685 rctB-dependent plasmid, OD600 growth, 3 h; hits give low values. z-score (test concentration not listed). AID 504770;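 active = z-score under -2 on both plates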;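 note: wells of about 30 µL received 100 nL stock; score is relative to mean and SD of the test wells; the first replicate is given; strong numbers were not always called active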
# CapD inh: inhibitors of Bacillus anthracis CapD enzyme | z-score (test concentration not listed) | 140,000 tested, 0.23% active | purified CapD enzyme, fluorescence intensity read-out; hits give low values; some hits fall short of the stated cut;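 active = z-score under -4 in either of two replicates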;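 note: stock transfer was 100 nL into about 40 µL; score is relative to mean and spread of the plate; one replicate is shown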
# * = called active by the depositor; · = no result given.
SMILES,AID504770,CapD inh
COc1cccc(-c2nc3ccccc3c(=O)n2NC(=O)c2cc(Br)ccc2Cl)c1,·,-0.62
C#Cc1cccc(-n2nnc(-c3ccccc3)c2C)c1,0.35,-0.06
O=C(O)CCN1C(=O)/C(=C2/C(=O)N(CC(=O)Nc3cccc(Cl)c3)c3ccccc32)SC1=S,·,0.06
Oc1cccc2c(NC(=S)NC3CC3)cccc12,1.1,·
Cc1nc2ccc(Br)cc2c2c1C(=O)N(C1CCN(Cc3ccccc3Sc3ccc(Cl)cc3)C1)C2=O (stereo not drawn),·,-0.37
CCOC(=O)c1c(-c2ccc(OC)cc2)noc1C,0.85,-0.6
CC1CN(C(=O)COC(=O)c2ccc(C(=O)c3ccccc3)cc2)CC(C)O1 (stereo not drawn),0.55,·
O=C1c2ccccc2C(=O)N1SC1CCCCC1,-0.85,·
O=C(CSc1ncnc2c1oc1ccccc12)c1ccccc1,-0.9,-0.09
COc1cc(Br)cc(CO)c1O,0.3,0.32
Cn1c(C(=O)NCc2ccccc2)cc2sccc21,1,0.39
CC(C)N1CCC2(CC1)N=C(c1ccc3c(c1)OCO3)CC(c1cc(Cl)ccc1O)N2 (stereo not drawn),0.1,0.51
O=C(COC(=O)c1ccc2ccccc2n1)Nc1cc(C(F)(F)F)ccc1N1CCOCC1,0.65,·
O=C(Nc1ccccc1)ON=C1CC2CCCC(C1)N2Cc1ccccc1,·,0.02
O=C(O)c1cn(Cc2ccc(Cl)cc2)c2ccccc12,2.5,0.015
CCC(C)(C)C1CCC(=NNc2ccccn2)CC1 (stereo not drawn),-1.1,·
CCc1nnsc1C(=O)Nc1ccc(S(=O)(=O)N2CCOCC2)cc1,0.25,·
COc1cc(OC)nc(OC(Cc2cnc3ccccc3n2)c2ccccc2)n1 (stereo not drawn),·,-0.18
Cc1ccccc1NCCC(=O)NCc1ccccc1F,1.2,·
Cn1c(CSCCOc2ccccc2)n[nH]c1=S,-0.45,-0.16
O=C(c1ccc(N2C(=O)CCC2=O)cc1)N1CCc2ccccc21,0.65,0.24
CCOc1ccc(NC(=O)c2oc3ccccc3c2NC(=O)c2cccs2)cc1,-0.65,-0.24
O=C(OCC(=O)N1CCc2ccccc21)c1n[nH]c2ccccc12,-0.4,-0.93
Cc1cn(CC(=O)c2ccccc2)c2ccccc12,-0.7,0.13
CCOC(=O)c1c(CN2CCCCC2)n(-c2ccccc2)c2cc(Br)c(O)c(CN3CCOCC3)c12,·,0.65
CCCCC(C(=O)O)N1C(=O)c2ccccc2C1=O (stereo not drawn),-0.75,-0.43
Cc1cccc(NCC(O)Cn2nnnc2-c2ccccc2)c1 (stereo not drawn),0.9,-0.34
CCN(Cc1ccccc1)C(=O)c1c[nH]c2ccc(S(=O)(=O)N3CCC4(CC3)OCCO4)cc2c1=O,·,5.4
O=C(/C=C/c1ccco1)N1CCc2ccccc2C1,-0.35,·
NS(=O)(=O)c1ccc(CCNc2cc(=O)n(Cc3ccc(F)cc3)c(=O)[nH]2)cc1,-0.15,0.3
Fc1ccc(C2=CC(c3ccccc3)n3c(nc4ccccc43)N2)cc1 (stereo not drawn),·,-0.24
Cc1cccc(C)c1NC(=O)CSC1=C(C#N)C(c2cccs2)C2=C(CCCC2=O)N1 (stereo not drawn),·,3.5
CC(C)c1ccc(S(=O)(=O)Nc2ccc(O)c(Cl)c2)cc1,0.45,-0.45
CCCc1cc(=O)n2[nH]c(NCc3ccccc3)nc2n1,-1.1,0.28
CC1CCCCC1NC(=O)Cn1nc(-c2ccccc2)ccc1=O (stereo not drawn),0.15,-0.55
Cc1ccc(S(=O)(=O)NCc2ccc(C(=O)N3CCN(c4ccccc4)CC3)cc2)cc1,-0.35,-0.18
O=C(c1nc2ncccn2n1)N1CCN(c2ccccc2)CC1,-0.5,0.12
CCCn1c(C)cc(/C=C(\C#N)C(=O)OCc2nc3ccccc3s2)c1C,-0.2,·
CCOC(=O)N1CCCN=C1NNc1cc(F)ccc1C,·,0.3
CCOc1ccccc1CN1CCC(CNC(=O)c2cc(=O)[nH]c3ccc(S(=O)(=O)N4CCCCC4)cc23)CC1,0.5,-0.04

# Complete entries as entered above:
# CC1CCCCC1NC(=O)Cn1nc(-c2ccccc2)ccc1=O (stereo not drawn) is listed as AID504770: 0.15; CapD inh: -0.55
# O=C(Nc1ccccc1)ON=C1CC2CCCC(C1)N2Cc1ccccc1 is listed as AID504770: ·; CapD inh: 0.02
# CC(C)c1ccc(S(=O)(=O)Nc2ccc(O)c(Cl)c2)cc1 is listed as AID504770: 0.45; CapD inh: -0.45

# Other entries.
SMILES,AID504770,CapD inh
Nn1c(SCc2cccnc2)nncc1=O,0.8,·
CC1CC(OCC(O)CN2CCN(c3cccc(Cl)c3)CC2)CC(C)(C)C1 (stereo not drawn),-0.45,-0.73
Cc1ccc(C(OCC(C)(C)C[N+](C)(C)C)c2ccccc2)cc1 (stereo not drawn),-0.25,0.045
Cn1c(-c2ccc(C(=O)c3ccccc3)s2)nc2ccccc21,0.4,1.4
Cc1ccc(Oc2ncccc2C(=O)NNC(=O)c2ccco2)cc1,·,-0.37
COC(=O)C1=C(Nc2cccc(-c3nn(C)cc3Br)c2)CSC1,0.4,0.15
O=C(O)Cc1cn(Cc2ccc(F)cc2)c2ccccc12,-0.4,0.055
O=C1CC(c2ccc(S(=O)(=O)NC3CC3)cc2)CN1 (stereo not drawn),-0.15,-0.26
O=C(CCC1CCCCC1)NCCCN1CCOCC1,-0.3,0.095
N#CCSc1ccccc1NC(=O)COc1ccc(-c2nnco2)cc1,-0.35,·
C/C(=N\OC(=O)c1ccc(C(F)(F)F)cc1)c1cc[nH]c1,0.25,0.31
COc1cccc(C2(O)CC(C(F)(F)F)=NN2C(=O)c2ccccc2O)c1 (stereo not drawn),·,-0.76
CCOc1ccc(C2=NN3C(C2)c2cc(Cl)ccc2OC3c2cc(OC)c(OC)c(OC)c2)cc1 (stereo not drawn),·,-0.27
COc1cc(OC)c(CN2CCN(C(=O)OCc3ccc(C)cc3)CC2)c(OC)c1,·,0.41
O=[N+]([O-])c1cc(CN2CCCCC2)ccc1Sc1ccc(Cl)cc1,·,-0.36
Cc1cccc(CSc2nncn2C)c1,0.15,-0.27
Cc1cc(C)c2cccnc2c1O,-2.4*,-0.48
COc1cc(C2C3=C(CC(C)(C)CC3=O)OC3=C2C(=O)CC(C)(C)C3)cc([N+](=O)[O-])c1O,·,-2.1
Cn1nc(C(F)(F)F)c(C#N)c1S(=O)(=O)Cc1cccc(C(F)(F)F)c1,·,0.32
COc1cc(CCNS(=O)(=O)c2ccc(NC(C)=O)cc2)cc(OC)c1,·,-0.99
CCN=C1SC(CC(=O)Nc2ccc(N3CCOCC3)cc2)C(=O)N1CC (stereo not drawn),·,-0.01
COc1ccc(/C=C(\C#N)c2cccc(Cl)c2)cc1,·,-1.1
CCCCCC1(CCCCC)NC(=S)N(c2ccccc2)N1,·,-0.08
Cc1nn(-c2ccccc2)nc1C(=O)NN,·,0.27
O=C(O)c1ccccc1C(=O)NCc1nc(-c2ccc(C(F)(F)F)cc2)no1,-0.25,0.45
Cc1cc(=O)n(C(C)(C)C)c(=O)n1Cc1ccccc1,-0.6,0.18
COc1ccc(S(=O)(=O)Nc2cncc(C(=O)Nc3ccc(C(F)(F)F)cc3)c2)cc1,-0.2,0.65
O=C(O)C1CCC(CNCc2ccccc2Cl)CC1 (stereo not drawn),1,0.28
COC(=O)c1cc2sc(Cl)cc2n1CC(=O)Nc1ccc(C)cc1C,-1.2,0.26
CCCCn1c(COc2ccccc2C#N)nc2cc(S(N)(=O)=O)ccc21,-0.05,·
S=C(NCc1ccco1)NNC(=S)Nc1ccc(Cl)cc1,-0.1,-1.1
COc1ccc(C(=O)NC2=Nc3ccccc3N=C(C)C2c2ccccc2)cc1 (stereo not drawn),-0.65,-0.79
CN(C)C(=O)CN1CCN(Cc2nc3c(Br)cc(Br)cc3c(=O)[nH]2)CC1,-0.6,·
Cc1nc2ccccc2n1-c1ccc(S(N)(=O)=O)cc1,1.8,0.58
O=C(Cc1c(F)cccc1Cl)NC(=O)Nc1ccc(F)c(Cl)c1,0.95,14
CCCn1c(N)c(C(=O)CSc2ccc(S(=O)(=O)N3CCN(C)CC3)cn2)c(=O)[nH]c1=O,1.4,·
O=C(Cn1cnc2ccccc21)N1CCc2ccccc21,0.25,0.68
CN(CCOC(=O)C1CC(=O)N(c2ccccc2)C1)C1=NS(=O)(=O)c2ccccc21 (stereo not drawn),·,0.11
N#CCSc1ncnc2cc(-c3ccc(Cl)cc3)sc12,0.45,·
N#Cc1ccc(CSc2ncccn2)cc1,0.35,0.34

# Some of these compounds in order of molar mass, low to high.
SMILES,AID504770,CapD inh
COc1ccc(/C=C(\C#N)c2cccc(Cl)c2)cc1,·,-1.1
Cc1nc2ccccc2n1-c1ccc(S(N)(=O)=O)cc1,1.8,0.58
CCCCn1c(COc2ccccc2C#N)nc2cc(S(N)(=O)=O)ccc21,-0.05,·
CCN=C1SC(CC(=O)Nc2ccc(N3CCOCC3)cc2)C(=O)N1CC (stereo not drawn),·,-0.01
CN(CCOC(=O)C1CC(=O)N(c2ccccc2)C1)C1=NS(=O)(=O)c2ccccc21 (stereo not drawn),·,0.11

# Additional results follow:
SMILES,AID504770,CapD inh
CCOC(=O)c1cc(-c2ccccc2)sc1NC(=O)c1ccc(Br)cc1,·,-0.05
Cc1ccc(C)c(OCc2nc3ccccc3n2C(C)C)c1,0.1,0.93
CC1(C)Cc2c(c(N3CCOCC3)nc3oc(C(=O)c4ccccc4)c(N)c23)CO1,0.35,·
CC(=O)N1CCN(S(=O)(=O)c2cccc(C(=O)NC3CCCCCC3)c2)CC1,1.8,·
COc1cc(C)nc(SCC(N)=O)n1,0.2,0.78
CCC1CCCCN1C(=O)CCN1C(=O)/C(=C/c2ccc3c(c2)OCO3)SC1=S (stereo not drawn),·,0.11
COC(=O)c1cc(N2C(=O)C3C4C=CC(CC4)C3C2=O)ccc1Cl (stereo not drawn),·,-1.1
Cc1ccc(N2C(=O)CC(N3CCSCC3)C2=O)c(C)c1 (stereo not drawn),-1.5,-0.62
Cc1ccc(C)n1-c1cccc2cccnc12,-0.9,·
CC1=NN(c2ccccc2)C(=O)/C1=C/c1cc(C)n(C2CC2)c1C,2.9,·
COc1ccc(C2CC(c3ccc(C)cc3)=NN2C(=O)CCC(=O)O)cc1 (stereo not drawn),·,-0.3
O=C(O)c1ccc2c(c1)ncn2-c1ccc(Br)cc1,-0.4,·
COCCn1c(SCC(=O)N2CCOCC2)nc2c(c1=O)SC(C)C2 (stereo not drawn),-0.45,-0.5
C=CCOc1ccc(CN2CCCCC2COC(=O)N2CCN(c3ccc(OC)cc3)C(C)C2)cc1 (stereo not drawn),·,0.59
O=c1cc(CSc2nnnn2C2CC2)nc2sccn12,0.8,·
O=C(COc1ccc(Cl)cc1Cl)OCCCN=C1NS(=O)(=O)c2ccccc21,·,-0.66
CCOC(=O)c1oc2ccc(OC)cc2c1CN1CCN(C)CC1,1.1,25
CN(C)S(=O)(=O)c1ccc(NC(=O)COC(=O)C2CC3CCCC(C2)C3=O)cc1 (stereo not drawn),1.5,·
CCN(CC)S(=O)(=O)c1ccc2c(c1)nc(CCC(=O)OCc1ccc(C(=O)OC)o1)n2C,-0.15,·
CN(C)CCOC(=O)c1ccc(N2Cc3ccccc3C2=N)cc1,0.75,-0.06

# 2 of the compounds above, with values under each structure:
# Below each compound – AID504770, CapD inh
- CCN(CC)S(=O)(=O)c1ccc2c(c1)nc(CCC(=O)OCc1ccc(C(=O)OC)o1)n2C
    -0.15, ·
- CN(C)CCOC(=O)c1ccc(N2Cc3ccccc3C2=N)cc1
    0.75, -0.06

# Next structures
SMILES,AID504770,CapD inh
Cc1ccc(Cn2c(=O)n(Cc3ccccc3)c(=O)c3ccccc32)cc1,0.45,1.9
CC(C)n1c(CNC(=O)c2ccccc2)nc2ccccc21,0.2,0.25
Cc1cccc(NC(=O)CSc2ccccn2)c1,-0.75,-0.74
COc1nc(N2CCOCC2)nc(N2CCN(c3ccc(F)cc3)CC2)n1,-0.3,·
CC(=O)n1c2c(c3ccccc31)OC(N)=C(C#N)C2c1cccc(F)c1 (stereo not drawn),·,1.8
O=c1c2cc(-c3ccccc3)sc2ncn1-n1cccc1,1.1,0.69
CCOC(=O)CC(=O)CSc1nc2c(sc(=S)n2-c2ccc(OCC)cc2)c(=O)[nH]1,·,-1.1
CC1C(=N)N(c2nc(N(C)C)nc(N(C)C)n2)CC1=O (stereo not drawn),0.2,·
CCOC(=O)c1cnc2cc(-c3ccco3)[nH]n2c1=O,0.65,0.34
N#Cc1ccccc1N1C(=O)c2ccccc2S1(=O)=O,-0.7,0.19
CC(OC(=O)CCc1nc2ccccc2[nH]c1=O)C(=O)c1ccccc1 (stereo not drawn),0.55,·
Cc1cc(=O)oc2cc(OCC(=O)NCC3CCCCC3)c(Cl)cc12,0.35,2.8
CCOC(=O)C1=C(C)NC2=C(C(=O)C(C(=O)OCC)C(c3cccc(OC)c3)C2)C1c1ccc(C)cc1 (stereo not drawn),·,8
CCOc1ccc(OCCCC(=O)Nc2nc3ccccc3[nH]2)cc1,2,·
Cc1cc(-n2c(C)ccc2C)no1,0.1,0.83
CCN(CC)C(=O)Cn1c(C)c(/C=C/C2=CCN(C)CC2)c2ccccc21,-0.2,·
O=C1O[C@H]2C[C@@H]3C[C@H]2[C@H]1[C@@H]3C(=O)N(Cc1ccccc1)Cc1ccccc1,-0.1,0.31
O=C1N=c2ccccc2=C1c1sc(Nc2cccc(C(F)(F)F)c2)nc1O,0.1,0.03
CC(NC(=O)c1ccco1)C(c1cccs1)N1CCN(C)CC1 (stereo not drawn),-0.5,-1.2
COC(=O)C(C)Oc1cc2oc(=O)c3c(c2cc1Cl)CCCC3 (stereo not drawn),-0.45,10

# High-throughput results from PubChem BioAssay.
